Rango-impB inh: inhibitors of Rango-importin beta complex formation | 340,000 tested, 0.031% active | Potency, µM (titrated, usually from 92.2 µM), without a hit: at the highest dose inhibition of complex formation | Rango CFP/YFP FRET sensor + importin beta, 45 min | Q14974 | AID 540263; active = rising FRET ratio curve, often small or poorly fitted; inconclusive = mostly compound fluorescence or quenching in the first reads; inactive = flat curves in all reads;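 further: potency means the concentration at half of the fitted maximal effect; 0% = DMSO wells and 100% = buffer wells lacking importin beta; nearly all actives have a fitted effect of over 15% in size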
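FRET biosensor (snurportin 1 IBB flanked by EYFP and cerulean), 50 nM, with compound 5 min, then 0.125 microM importin beta in PBS, 1 mM DTT, 0.02% Tween-20, 0.1% BSA. CFP/YFP ratio read after 45 min at room temperature; pre-read flags interference.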
GLA inh pH 4.5: blocks human alpha-galactosidase A at pH 4.5. P06280. purified enzyme, 4-MU-alpha-Gal fluorescence, pH 4.5. activity change, negative = inhibition, % at 105 µM. 230,000 tested, under 10 active. AID 1467; inconclusive = small, poorly fitted or top-dose-only inhibition, or a rising curve; inactive = flat fitted curve, though single readings scatter; no compound was filed as active;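 further: 0% = full activity with enzyme and -100% = basal without enzyme; dose as in the result columns while the protocol names 77 µM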
Target sequence (P06280 whole entry, looked up): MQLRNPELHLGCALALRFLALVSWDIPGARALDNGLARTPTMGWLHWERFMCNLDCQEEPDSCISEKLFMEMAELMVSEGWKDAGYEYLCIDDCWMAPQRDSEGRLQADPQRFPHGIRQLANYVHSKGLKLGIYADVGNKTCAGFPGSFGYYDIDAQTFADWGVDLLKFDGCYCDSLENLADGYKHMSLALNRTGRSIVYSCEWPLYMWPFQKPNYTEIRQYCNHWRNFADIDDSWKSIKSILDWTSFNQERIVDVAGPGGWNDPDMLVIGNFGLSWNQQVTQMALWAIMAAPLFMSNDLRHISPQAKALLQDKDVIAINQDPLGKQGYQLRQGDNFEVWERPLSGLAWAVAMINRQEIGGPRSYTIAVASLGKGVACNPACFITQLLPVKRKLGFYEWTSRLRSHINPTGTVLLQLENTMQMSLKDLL
Rango dissoc inh: inhibitors of RanGTP-induced Rango-importin beta complex dissociation | O95149+P62826 | Biochemical FRET Rango-importin beta, RanGTP-induced dissociation | Potency, µM (series often up to 46.1 µM), without a hit: at the top dose activity change, negative = inhibition | 340,000 tested, 0.071% active | AID 540253; active means falling FRET ratio curve, often poorly fitted, with flat reads before Ran was added; inconclusive means other falling curves, or compound fluorescence or quenching; inactive means flat or rising ratio curve;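 further: potency means the concentration at half of the fitted maximal effect; % of control where 0% means no effect; nearly all actives have a fitted effect of over 45% in size; -100% = wells without RanGTP and RCC1; the record marks most hits as doubtful in a second field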
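Recombinant Rango FRET biosensor (EYFP–snurportin 1 IBB–cerulean CFP10) at 0.1 uM premixed with 0.25 uM importin beta in PBS, 1 mM DTT, 0.02% Tween-20, 0.1% BSA. Compound added 5 min; RanGTP-RCC1 (0.6 uM Ran, 2 mM GTP, 0.2 uM RCC1) then triggers release, read at 45 min.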
miR-21 reporter: raises the signal of a miR-21 reporter; 340,000 tested, under 10 active; HeLa miR-21 FLuc reporter, luciferase, 48 h; AID 2288; Potency, µM (series often up to 38.3 µM), without a hit: top-dose reporter change, positive = more light; active = well fitted rising curve with a large enough effect; inconclusive = small, poorly fitted or top-dose-only effect; inactive = no such curve, though single readings can be large or run the other way;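 further: % of control where 0% means no effect; miR-21 action dims this reporter so a rising signal means less miR-21 action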
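Luminescence from a firefly luciferase reporter carrying a miR-21 binding site downstream, stably expressed under a CMV promoter in HeLa cells that make miR-21 endogenously, reports miRNA modulation after 48 h compound exposure up to approximately 40uM final.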
Starred values were filed as active, the others as inactive; ? = inconclusive; / = no result given; & = joins results of further samples. Some of the compounds tested; the hit share may differ from the screen's.

SMILES | Rango-impB inh | GLA inh pH 4.5 | Rango dissoc inh | miR-21 reporter
Cc1cccc(N(CC(=O)Nc2c(C)n(C)n(-c3ccccc3)c2=O)S(C)(=O)=O)c1 | 1.4% | 3 | 13% | -8%
CCCCCCc1nc2ccccc2c(=O)n1NC(=O)c1c(O)c2c(n(CC(C)C)c1=O)CCCC2 | -2.9% | -8 | -1% | -5%
CCOC(=O)c1c(-c2ccccc2)c[nH]c1C | -3.3% | / | -15% | /
CC(=O)c1ccc(OC(=O)c2cc3ccccc3oc2=O)cc1 | / | 1 | / | -4%
CC(=O)c1cccc(CN2CCCC(N3CCN(c4ccccc4F)CC3)C2)c1 (stereo unspecified) | 1.4% | / | -1% | -1%
CCOc1ccc(NCc2nnc(SCC(=O)Nc3nc(-c4ccccc4)cs3)n2-c2ccccc2)cc1 | 1.3% | 6 | -20% | -10%
CCN(CC)S(=O)(=O)c1ccc(N2CCCC2)c(C(=O)OCC(=O)Nc2cc(C)on2)c1 | 1.1% | -28 | -3% | 6%
CC(=O)Nc1cc2c(cc1NC(=O)Cn1nc(-c3ccccc3)ccc1=O)OCCO2 | 0.2% | / | -8% | 8%
O=C(NC(=S)Nc1ccc2oc(=O)ccc2c1)c1cc2ccccc2o1 | -0.7% | 1 | 5% | -2%
CCOC(=O)CSc1nc(N)c2c3c(sc2n1)CCCC3 | 0.2% | -6 | -5% | -9%
Cc1ccc2nc(-c3cc(-c4ccccc4)no3)cn2c1 | ? | 0 | -8% | -26%
CCCCc1cc2ccccc2c(OCCN(C)C)n1 | -0.5% | -19 | -9% | /
COc1ccc(SCC(=O)Nc2ccccc2Cl)cc1 | -4.2% | 2 | 21% | -12%
Cn1ccnc1SCC(=O)Nc1ccc2c(c1)OCCO2 | -0.6% | / | -15% | -57%
N#CC1=C(O)CCCn2c1nc1ccccc1c2=O | -0.2% | -1 | 1% | -6%
Clc1ccccc1OCCCCN1CCCC1 | -2.7% | -9 | -7% | -7%
CCOc1ccc(C2CC(c3cccc(OC)c3)n3nc(N)nc3N2)cc1 (stereo unspecified) | 0.9% | 1 | -12% | -7%
CCOC(=O)Cn1nc(CC)c2ccccc2c1=O | 6.3% | -14 | 2% | -3%
COc1ccc(OCC(=O)NNc2c3ccccc3nc3ccccc23)cc1 | -5.5% | -3 | -9% | ?
Nc1ccccc1/C=N\N=C/c1ccccc1N | 0.0% | / | -8% | /
Cc1nc(-c2ccccc2)c(Cc2ccccc2O)c(=O)[nH]1 | -0.7% | -3 | 4% | 3%
CSc1ccc(CN2CCN(C(=O)c3ccc([N+](=O)[O-])cc3)CC2)cc1 | 3.6% | 8 | 7% | 16%
CN(C)c1ccc(C(O)P(=O)(OC2CCCCC2)OC2CCCCC2)cc1 (stereo unspecified) | -0.7% | -5 | 18% | 2%
COC(=O)C(Cc1ccccc1)NC(=O)CNC(=O)c1sc2ccccc2c1Cl (stereo unspecified) | -0.3% | / | 0% | -9%
CC(C)NC(=O)CSCc1ccccc1Cl | 1.8% | -6 | 5% | -12%
O=C(Nc1ccc2oc(-c3cccnc3)nc2c1)c1ccc(Br)o1 | -1.1% | -1 | 3% | -2%
CC1CCN(c2cc(N3CCN(C(=O)c4ccc(F)c(F)c4)CC3)c([N+](=O)[O-])cc2F)CC1 | 1.1% | -3 | 3% | -3%
CCCCn1c(N)c(Sc2ccc(C)cc2)c(=O)[nH]c1=O | 0.4% | 4 | 27% | -4%
NC(Cc1ccc2nonc2c1)C(=O)O (stereo unspecified) | 2.2% | 1 | 2% | -3%
O=C(CSc1ccc(-c2ccccn2)nn1)Nc1ccc(F)c(F)c1 | 1.3% | / | -9% | -12%&-17%
COc1cc(NC(=O)c2cccnc2Sc2ccc(C)c(C)c2)cc(OC)c1OC | -2.7% | 3 | 1% | 1%
CCC1C/C(=C/c2ccco2)C(=O)/C(=C/c2ccco2)C1 (stereo unspecified) | / | -3 | / | 24%
CCCCNC(=O)Cn1nc(-c2ccc(C)cc2)ccc1=O | 0.0% | / | 1% | -1%
CCN(CCCNC(=O)c1[nH]c(C)c(C(C)=O)c1C)c1ccccc1 | -0.8% | -6 | 4% | 13%
CC(C)CC(=O)N1CCC(O)(CS(=O)(=O)c2ccc(Cl)c(Cl)c2)CC1 | 0.5% | -3 | -5% | 4%
Cc1cccc(OCc2ccc(C(=O)Nc3cc(C)on3)o2)c1 | 13% | / | 24% | 0%
COc1ccc(C(C)C)cc1S(=O)(=O)N1CCN(c2ccccc2)CC1 | 7.3% | -5 | -9% | 1%
CN(C(=O)CCc1nnc(Cc2ccc(-c3ccccc3)cc2)o1)C1CCOCC1 | -2.2% | 1 | -3% | 2%
Fc1ccc(Cn2ccc(-c3cnc(-c4ccccc4)s3)n2)cc1 | -0.7% | 7 | -15% | -26%
Cc1ccc(CN2CCN(Cc3c(C)nn(C(C)C)c3C)CC2CCO)o1 (stereo unspecified) | -0.3% | -1 | 0% | 0%
CCOC(=O)C1CCN(Cc2ccccc2C)CC1 | -1.3% | -5 | 15% | -2%
O=C(Nc1nnc(S(=O)(=O)N2CCCC2)s1)c1ccccc1F | -2.0% | / | 17% | -20%&2%
O=C(O)/C(=C\c1ccc(Cl)c([N+](=O)[O-])c1)c1ccc(S(=O)(=O)N2CCCC2)s1 | 3.1% | / | 0% | /
O=C(Cn1c2[n+](c3ccc(C(F)(F)F)cc31)CCCCC2)Nc1c(F)cccc1F | -0.1% | 2 | -10% | 7%
O=C(NCCNC(=O)c1ccccc1O)c1ccccc1O | 1.6% | / | ? | -4%
COc1ccc(-c2oc3cc(O)c(OC)c(O)c3c(=O)c2OC)cc1O | -1.7% | / | 2% | /
Cc1cc(C(=O)NCC(=O)Nc2ccc(F)c(F)c2)c(C)o1 | -4.9% | / | 1% | /
Cc1nc2ccccn2c1C(=O)N/N=C/c1ccccc1[N+](=O)[O-] | -0.5% | -4 | -10% | -1%
CCN1CCN(c2c(S(=O)(=O)c3ccc(C)c(C)c3)cnc3ccc(F)cc23)CC1 | -0.8% | / | 9% | 16%&9%
Cc1ccnc(NC2CCCCC2)c1 | 0.1% | 4 | 1% | -13%
Cc1ccc2nc(NCc3ccccc3)c(C=NCc3ccccc3)c(=O)n2c1 | -1.0% | -17 | 0% | -31%
COc1ccc(OC)c(NC(=O)COC(=O)C2CCN(C(=O)c3ccc(Cl)cc3)CC2)c1 | -0.8% | -1 | 9% | 0%
O=C(COC(=O)CNC(=O)c1ccccc1)NCCCc1ccccc1 | -1.7% | / | 0% | /
CCOc1ccccc1NC(=O)CSc1nnc(C2CC2)n1CC | 0.0% | / | 15% | 1%
CCOC(=O)C1CCN(C(=O)c2ccc(OC)cc2OC)CC1 | -3.6% | 0 | -14% | -7%
CC(C)c1nnc(NC(=O)c2sc3ccccc3c2Cl)s1 | -2.2% | 6 | 3% | -34%
CCCC1CCC(=NNC(=S)NCCc2ccccc2)CC1 (stereo unspecified) | -3.3% | 13 | 3% | 0%
Cc1cc(=O)[nH]c(S)c1C#N | / | 0 | / | 3%
COc1ccc(-n2nc(C(=O)N(C)C3CCCCC3)c3ccccc3c2=O)c(OC)c1 | -0.7% | / | -15% | -7%
C=CCNC(=O)c1cc(=O)c2ccccc2o1 | 1.2% | 7 | 7% | -2%

Going on with the list.
SMILES | Rango-impB inh | GLA inh pH 4.5 | Rango dissoc inh | miR-21 reporter
COc1ccc(/C=C2/SC(=O)N(CCC(=O)Nc3ccccc3)C2=O)cc1OC | -1.5% | 5 | 24% | -9%
COc1ccc(S(N)(=O)=O)cc1C(=O)NCCCN1CCN(c2cccc(Cl)c2)CC1 | 0.9% | 2 | 0% | -4%
Cc1ccc(Nc2nc(-c3cccnc3)cs2)cc1C | 0.0% | / | -4% | -43%
COc1ccc2[nH]c(=S)[nH]c2c1 | -0.3% | -1 | 12% | -6%
COc1cc(C)ccc1NC(=O)c1ccc(S(=O)(=O)N2CCOCC2)cc1 | -4.9% | -7 | -21% | -2%
CCOc1cccc(-c2cc(=O)[nH][nH]2)c1 | -0.8% | 1 | 2% | 0%
COc1cnc(-c2ccccn2)nc1Oc1c(C)cccc1C | -2.4% | 2 | 12% | 28%
CCc1ccc(NC(=O)c2cnn3c(C(F)F)cc(C)nc23)cc1 | -2.4% | 3 | -2% | 0%
O=C(Nc1ccncc1)c1cc(-c2ccccn2)nc2ccccc12 | 0.7% | 5 | 16% | -2%
CCN1C(=O)NC(c2ccccc2)C1=O (stereo unspecified) | -1.6% | / | -2% | /
COc1cc(C(C(=O)NC2CCCCC2)N(C(=O)Cc2c[nH]c3ccccc23)c2ccc(C)cc2)cc(OC)c1OC (stereo unspecified) | 2.5% | -13 | -3% | -1%
COc1ccc(NC(=O)CSc2n[nH]c(=O)n2Cc2ccccc2)cc1Cl | -3.3% | / | -20% | 3%
O=C(O)CCCN1C(=O)/C(=C\C(Cl)=C\c2ccccc2)SC1=S | -0.5% | / | -9% | ?
COCc1ccc(C(=O)N2CCCC(C(=O)c3cccc(C(F)(F)F)c3)C2)o1 (stereo unspecified) | 2.1% | -6 | 0% | -1%
COCc1c(C(=O)OCc2nnc(-c3ccc([N+](=O)[O-])cc3)o2)oc2ccccc12 | 0.1% | / | 0% | /
CC(C)CC1NC(=O)N(CC(=O)Nc2cc([N+](=O)[O-])ccc2F)C1=O (stereo unspecified) | -2.6% | / | -6% | /
CCn1nc(C)c(CNC(=O)C2CCC(=O)N(Cc3ccc(Cl)cc3)C2)c1C (stereo unspecified) | 3.0% | / | ? | -1%
CCOCCCn1c(=N)c(S(=O)(=O)c2ccc(C)cc2)cc2c(=O)n3cc(C)ccc3nc21 | ? | / | ? | -4%
O=C1CSC(=S)N1/N=C/c1cccnc1 | -0.3% | -5 | 0% | -2%
CC(C)CNC(=O)c1ccccc1NC(=O)CSCc1ccccc1 | -0.3% | -1 | 7% | 1%
CC(=O)C(C)Oc1ccc2c3c(c(=O)oc2c1C)CCCC3 (stereo unspecified) | 0.7% | 7 | 7% | -66%
CCCC(C(=O)Nc1ccncc1)c1ccccc1 (stereo unspecified) | -0.7% | / | 0% | 10%
Cc1ccsc1C(=O)NC(C)c1ccccc1 (stereo unspecified) | 1.0% | / | -5% | 1%
CCC(C)[C@H](NC(=O)[C@@H]1CSC2c3ccccc3C(=O)N21)C(=O)NCc1ccco1 (stereo partly specified) | 0.7% | / | 2% | 0%
Cc1cc(C)c(OCC(=O)N/N=C/c2ccc3c(c2)OCO3)c(C)c1 | 0.2% | -5 | 11% | 15%
Cc1ccc(S(=O)(=O)N2CCN(C(=O)CCC(=O)NCc3cccc(C(F)(F)F)c3)CC2)cc1 | -0.3% | / | -18% | /
COc1ccccc1NC(=O)C(C)OC(=O)Cn1cnc2c1c(=O)n(C)c(=O)n2C (stereo unspecified) | 2.5% | / | -3% | /
O=C(CN1CCCCC1)NCC(=O)Nc1ccc(F)c(F)c1F | -2.0% | / | 23% | /
CC1(C)OC(C(=O)NC2CCCCC2)C(C(=O)NC2CCCCC2)O1 (stereo unspecified) | 0.1% | / | -10% | -3%
Cc1ccc(CNC(=O)c2ccccc2NC(=O)CN2CC(C)OC(C)C2)cc1 (stereo unspecified) | 1.6% | / | 6% | 7%
COc1ccc(NC(=O)c2cc(-c3ccco3)on2)cc1 | -0.3% | 0 | -1% | -65%
CCOC(=O)C1=CN(Cc2cccc(F)c2)S(=O)(=O)N(CC)C1c1ccc(F)c(Cl)c1 (stereo unspecified) | -3.5% | / | 2% | /
Cc1ccc([N+](=O)[O-])cc1N(CC(=O)NC1CCCC1)S(C)(=O)=O | ? | -5 | 10% | -6%
O=C(CSc1c2c(nc3ccc(Cl)cc13)CCCC2)N1CCN(C(=O)c2ccco2)CC1 | ? | / | -8% | /
CSc1nc2sc3c(c2c(=O)n1C)CCC(C)C3 (stereo unspecified) | -1.5% | -8 | 1% | -24%

Screening results deposited in PubChem BioAssay by National Center for Advancing Translational Sciences (NCATS).
